PKD1 inh = blocks activity of human protein kinase D1. Q15139. PKD1 kinase fluorescence polarization assay. inhibition, %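 (about 10 µM by stock and volumes)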. hit rate 0.056% among 200,000. AID 797;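 active means inhibition of 50% or more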;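 further: controls were vehicle for no effect and a reference inhibitor for full effect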
Target sequence (Q15139 whole entry, looked up): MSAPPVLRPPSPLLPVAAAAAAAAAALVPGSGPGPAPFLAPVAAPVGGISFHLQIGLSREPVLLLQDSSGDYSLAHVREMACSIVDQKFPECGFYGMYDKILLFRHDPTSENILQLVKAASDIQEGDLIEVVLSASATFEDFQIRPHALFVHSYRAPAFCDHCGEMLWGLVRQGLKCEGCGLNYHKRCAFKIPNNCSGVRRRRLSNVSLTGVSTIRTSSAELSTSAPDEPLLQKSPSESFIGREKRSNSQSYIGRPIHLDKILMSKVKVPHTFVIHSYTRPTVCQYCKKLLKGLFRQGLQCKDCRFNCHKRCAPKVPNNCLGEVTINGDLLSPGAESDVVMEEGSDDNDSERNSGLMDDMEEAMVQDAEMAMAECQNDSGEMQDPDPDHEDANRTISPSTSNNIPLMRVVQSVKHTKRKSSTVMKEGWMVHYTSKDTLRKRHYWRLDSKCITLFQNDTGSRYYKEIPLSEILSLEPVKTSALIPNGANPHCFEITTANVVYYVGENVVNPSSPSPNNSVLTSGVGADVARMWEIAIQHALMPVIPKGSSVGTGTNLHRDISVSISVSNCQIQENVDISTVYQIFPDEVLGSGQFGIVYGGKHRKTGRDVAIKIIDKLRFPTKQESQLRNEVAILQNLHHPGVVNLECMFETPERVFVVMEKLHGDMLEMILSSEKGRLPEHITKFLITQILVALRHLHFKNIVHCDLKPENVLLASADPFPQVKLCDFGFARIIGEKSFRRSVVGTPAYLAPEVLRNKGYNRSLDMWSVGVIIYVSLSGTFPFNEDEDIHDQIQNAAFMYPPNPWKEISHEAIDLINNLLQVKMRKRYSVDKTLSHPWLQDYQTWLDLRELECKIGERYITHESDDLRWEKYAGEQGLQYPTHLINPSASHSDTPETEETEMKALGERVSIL
HSV augment = increases HSV replication in cells. HSV replication augmentation in cells, fold increase. maximum fold increase. hit rate 0.005% among 220,000. AID 1956;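 active means peak rise of 1.5-fold or more in the series; tested in PC3 cells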;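 further: first round at 10 µM; read as green reporter fluorescence; hits show the peak of a series up to 25 µM; 1 = signal of infected wells without compound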
INS promoter inh = TRM-6 insulin promoter activity inhibition; TRM-6 cells (human fetal islet line), insulin promoter-eGFP reporter, imaging; reporter expression induced with tamoxifen; inhibition, % at 2 µM; hit rate 0.9% among 130,000; AID 1273;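 active means inhibition above the mean plus 3 SD, with well images judged a real hit on visual review, cut at about 60% in these data, passing the limit was not always enough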
GALR2 agonist = agonists of human galanin receptor 2 (GALR2). AID 803. GALR2-expressing cells, agonist activation read-out. activation, %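 (tested at 5 µM)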. hit rate 0.48% among 140,000;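 active means above mean plus 3 SD of all compounds, about 5% in these data, not always enough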;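 further: 0% = vehicle buffer wells and 100% = reference agonist at full effect; tested in CHO reporter cells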
RGS16-Gao HTS = modulates binding between human RGS16 and Galphao | AID 1441 | bead-based flow cytometry RGS16-Galphao binding, fluorescence; actives lie on both sides | O15492+P09471 | hit rate 0.38% among 220,000 | binding response (% of control), % at 10 µM;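 active means below 25% or above 175%, edge rows of some plates excepted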;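 further: Galphao activated by GDP with aluminum fluoride before binding; 100% = wells without compound and 0% = beads without RGS; some results beyond the cut were filed as inactive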
INS promoter inh cell count = further read-out of INS promoter inh, marked with its call; normalized cell count, %; measured here: cell count, toxicity; reference of the scale not given here;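 cells exposed to compound for 48 h; stained nuclei by imaging scaled within each plate; lower means fewer cells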
HSV augment primary fold = also measured in HSV augment; calls as there; fold increase; compound at 10 µM; measured here: primary screen fold increase 10 uM; tested in PC3 cells;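 GFP signal in the first replicate; 1 = infected wells without compound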
Numbers without * were called inactive; i = inactive; . = not tested or not shown.

SMILES | PKD1 inh | HSV augment | HSV augment primary fold | INS promoter inh | INS promoter inh cell count | GALR2 agonist | RGS16-Gao HTS
COc1ccccc1C(=O)NC(CCSC)C(=O)NCC(c1ccco1)N(C)C (stereo unspecified) | 0 | i | 1.1 | . | . | -3.2 | 104
O=S(=O)(Nc1ccccn1)c1cccc(S(=O)(=O)c2ccc(Cl)cc2)c1 | 0 | i | 0.99 | . | . | . | 94
CCn1c2ccccc2c2nnc(SCC(=O)NCCOC)nc21 | -8 | i | 0.95 | . | . | 2.6 | 96
CCC(=O)N(CCc1ccccc1)Cc1cc2cc(OC)ccc2[nH]c1=O | . | i | 0.9 | . | . | . | 102
CCn1c(=O)cc(OCC(=O)Nc2ccc(C)cn2)c2ccccc21 | -6 | i | 0.75 | . | . | -1.7 | 98
S=C(NCc1ccccc1)N1CCn2cccc2C1c1ccncc1 (stereo unspecified) | -4 | i | 1.1 | . | . | . | 96
Cc1ccc2nc(-c3ccc(SCC(=O)N4CCc5ccccc54)nc3)[nH]c2c1 | -14 | i | 0.87 | -17 | 44 | 1.1 | 103
CCN1CCN(c2nc3ccccc3nc2C(C#N)S(=O)(=O)c2ccc(C)cc2)CC1 (stereo unspecified) | -1 | . | . | 19 | 124 | 0.5 | 101
O=C(CSc1nc2ccccc2[nH]1)NC1CCCC1 | 12 | i | 1.1 | . | . | . | 102
COC(=O)c1ccc(NC(=O)c2ccc(C)cc2)o1 | -4 | i | 0.95 | -12 | 112 | -1.1 | 112
COc1ccc(Cn2c(-c3ccc(Cl)cc3)c[n+]3ccccc23)cc1 | -1 | i | 0.93 | . | . | -1.2 | 97
O=C(CNC(=O)c1cccc(Cl)c1)N/N=C/c1cccnc1 | . | i | 1.1 | . | . | . | 103
Cc1ccccc1N(CC(=O)N/N=C/c1ccc(F)cc1)C(=O)c1ccccc1 | -8 | i | 0.86 | -38 | 48 | -1.4 | 96
CCN(CC(=O)NC1CCS(=O)(=O)C1)S(=O)(=O)c1ccc(C)cc1C (stereo unspecified) | -11 | i | 1 | 37 | 122 | -1.1 | 91
Cc1c(NC(=S)NC(=O)c2ccco2)c(=O)n(-c2ccccc2)n1C | 2 | i | 0.84 | -7 | 118 | 0.1 | 101
CCC(CC)C(=O)Nc1cc(C(=O)NCCc2ccccc2)ccc1Cl | 9 | i | 0.96 | . | . | -2.1 | 97
CN1CCC(=NNC(=O)C(=O)Nc2ccc(F)cc2)CC1 | -2 | i | 0.99 | . | . | . | 101
CCOc1ccc(NCc2nnc(SCC(=O)Nc3cc(C)on3)n2-c2ccc(OC)cc2)cc1 | 0 | i | 0.95 | 12 | 113 | -0.2 | 102
Cc1ccc2nc(-c3ccccc3)cn2c1 | -15 | i | 0.99 | 18 | 158 | -1.4 | 101
Cc1ccc(NC(=S)NNC(=O)CSc2nc3ccccc3c(=O)n2-c2ccc(C)cc2)cc1 | -6 | i | 0.99 | -13 | 147 | 1.1 | 98
O=C(CSc1nnc2c3c4c(sc3ncn12)CCCC4)NCc1ccco1 | 8 | i | 1.1 | -29 | 44 | -5.0 | 100
CCOc1ccc(CNC(=O)CCS(=O)(=O)Cc2ccccc2C)cc1OC | 0 | i | 1.1 | -27 | 106 | . | 60
COc1cc(OC)cc(N(C(=O)C2COc3ccccc3O2)C(C(=O)NC2CCCCC2)c2ccc(O)cc2)c1 (stereo unspecified) | 7 | i | 0.81 | -27 | 99 | -1.5 | 99
O=C(CSc1nc2ccccc2c(=O)n1-c1ccccc1)N1CCc2ccccc21 | -2 | i | 0.96 | . | . | -1.3 | 131
O=S(=O)(c1cccc(NC(=S)Nc2ccc(Br)cc2Cl)c1)N1CCOCC1 | 8 | i | 1 | 12 | 93 | -1.7 | 98
The list goes on.
SMILES | PKD1 inh | HSV augment | HSV augment primary fold | INS promoter inh | INS promoter inh cell count | GALR2 agonist | RGS16-Gao HTS
Cc1c(Cc2ccc3c(c2)OCO3)sc(NC(=O)C(C)(C)C)c1C#N | -4 | i | 0.69 | . | . | -1.3 | 102
CCCCN(CC)C(=O)c1n[nH]c(=O)c2ccccc12 | -6 | i | 0.87 | -7 | 68 | -1.4 | 100
O=C(Nc1cccnc1)Nc1ccccc1Cl | -6 | i | 0.85 | . | . | -3.2 | 109
CCC(=O)N/N=C(\C)CC(=O)Nc1ccccc1-c1ccccc1 | -8 | i | 0.98 | 44 | 100 | -2.0 | 100
CC(C)(C)c1ccc(/C=C/C(=O)N2CCN(c3ncccn3)CC2)cc1 | -8 | i | 0.96 | -5 | 129 | 0.7 | 102
Cn1c(-c2ccccc2)c[n+]2c1-c1ccccc1C2 | 0 | i | 0.93 | . | . | -0.4 | 107
O=C(CSc1nnc2ccc(-c3cccnc3)nn12)Nc1ccc(F)cc1F | -6 | i | 0.98 | . | . | . | 112
CCCNC(=O)CS(=O)(=O)Cc1nc(-c2cccc(OC)c2)oc1C | -1 | i | 0.96 | . | . | -0.4 | 102
Cc1cc(NC(=O)c2cc(-c3ccc(C)s3)nc3ccccc23)no1 | -5 | i | 0.94 | . | . | -2.1 | 100
O=C(C1CCCCC1)N1CCN=C1SCc1cccc([N+](=O)[O-])c1 | -11 | i | 0.79 | . | . | . | 100
COc1cc(C2CC(=O)c3c([nH]c(C(=O)OCCOC(C)C)c3C)C2)cc(OC)c1OC (stereo unspecified) | -20 | i | 0.97 | . | . | -1.3 | 77
O=C1Nc2ccccc2C1(O)Cc1ccncc1 (stereo unspecified) | -8 | i | 0.92 | 14 | 125 | -1.0 | 78
COc1ccc(C)cc1NC(=O)C(=O)NNC(=O)COc1ccc(Cl)cc1 | -6 | i | 0.85 | 0 | 174 | . | 98
O=C1C2CCCN2C(c2ccc(F)cc2)N1c1nccs1 (stereo unspecified) | 9 | i | 0.88 | . | . | -2.1 | 101
CC(=O)c1ccc(NS(=O)(=O)Cc2ccc(Cl)cc2)cc1 | 0 | i | 1.1 | 14 | 72 | -3.6 | 96
CCOC(=O)c1sc(N(Cc2ccccc2)C(=O)CSc2ncn[nH]2)nc1C | -5 | i | 0.9 | 43 | 77 | -1.7 | 99
CCOC(=O)c1sc(=S)n(-c2ccccc2)c1N(C(C)=O)C(C)=O | 9 | i | 1.2 | -147 | 111 | . | 107
COc1cc(OC)c(C(=O)OC(C)C(=O)Nc2cc(C(F)(F)F)ccc2Cl)cc1OC (stereo unspecified) | 8 | i | 0.83 | . | . | -0.9 | 94
Cc1ccc(OCC(=O)Nn2c(C)nc3ccccc3c2=O)c(C(C)C)c1 | 0 | i | 1 | 19 | 88 | -1.2 | 102
O=C(Nc1ccc(Cl)cc1)Nc1nnc(SCc2ccc(Cl)cc2)s1 | 12 | i | 0.99 | . | . | 0.2 | 96
CCN1CCN(c2nc3c(c(=O)[nH]c(=O)n3C)n2CCCc2ccccc2)CC1 | 17 | i | 1 | . | . | . | 114
Cc1cccnc1NC(=O)/C=C/c1ccc2c(c1)OCO2 | -1 | i | 1 | . | . | -1.6 | 88
O=C(Nc1nc(-c2ccccn2)cs1)c1ccc(Cl)s1 | -8 | i | 0.71 | . | . | -0.6 | 113
COCCn1c(SCc2csc(-c3ccccc3)n2)nc2ccccc21 | 2 | i | 1 | -37 | 99 | -0.5 | 104
CC(=O)Nc1sc2c(c1C(c1ccccn1)N1CCCC1)CCCC2 (stereo unspecified) | -6 | i | 0.99 | . | . | . | 100

Individual results from the list.
For RGS16-Gao HTS, O=C(Nc1ccc(Cl)cc1)Nc1nnc(SCc2ccc(Cl)cc2)s1 has the entry 96
For PKD1 inh, Cc1c(Cc2ccc3c(c2)OCO3)sc(NC(=O)C(C)(C)C)c1C#N has the entry -4

Additional entries.
SMILES | PKD1 inh | HSV augment | HSV augment primary fold | INS promoter inh | INS promoter inh cell count | GALR2 agonist | RGS16-Gao HTS
Cc1cc2c(c(=O)o1)C(CCC1CCCCC1)C(C#N)=C(N)O2 (stereo unspecified) | . | i | 1.2 | . | . | . | 93
CN1CCN(C(=O)Nc2cccc3ccccc23)CC1 | -1 | i | 0.98 | 14 | 137 | -1.1 | 97
CC(/C=N/NC(=O)c1nn(C)c(C)c1Br)=C\c1ccccc1 | 1 | i | 0.91 | -25 | 117 | -0.5 | 102
CCNC(=S)NN(c1ccccc1)c1ccccc1 | 0 | i | 1.1 | . | . | 1.0 | 101
Cn1c(=O)c2c(nc(NCCCN3CCOCC3)n2Cc2ccc(Cl)cc2)n(C)c1=O | -5 | i | 0.73 | 15 | 138 | -0.6 | .
Cc1nn(CCCC(=O)NCc2ccccc2)c(C)c1[N+](=O)[O-] | -5 | i | 0.9 | 24 | 132 | -0.2 | 110
O=C(CSc1nncn1-c1ccccc1)NC1CCCc2ccccc21 (stereo unspecified) | 0 | i | 1 | -29 | 66 | -0.2 | 23*
COc1ccc(Cc2nc(-c3ccc(Br)cc3)no2)cc1 | 4 | i | 0.82 | 28 | 98 | -0.9 | 104
COc1cc(C(C2=C(O)CC(C)(C)CC2=O)C2C(=O)CC(C)(C)CC2=O)cc(OC)c1OC (stereo unspecified) | 1 | i | 0.97 | 29 | 127 | . | 100
CCN(CC)S(=O)(=O)c1cccc(C(=O)NC(Cc2c[nH]c3ccccc23)c2nnc3n2CCCCC3)c1 (stereo unspecified) | -5 | i | 0.88 | -3 | 91 | -2.7 | 102
O=S(=O)([N-]c1nc2ccccc2nc1-[n+]1ccc(Cc2ccccc2)cc1)c1ccc(Br)s1 | . | i | 0.81 | . | . | . | 93
O=C(O)CCC(=O)NCc1ccc(F)cc1 | -5 | i | 0.98 | 16 | 94 | -1.3 | 89
Cc1ccc(-c2nc(C(Cl)Cl)c3ccccc3n2)cc1 | . | i | 0.65 | . | . | . | 103
Cc1oc(-c2cccs2)nc1CSCC(=O)NC1CC1 | -5 | i | 1 | 47 | 64 | -1.4 | 97
Cc1cc(C(=O)Cn2ncc(Cl)c(Cl)c2=O)c(C)n1CC(F)(F)F | -5 | i | 0.67 | . | . | 0.2 | 98
Cc1cc(C)cc(NC(=O)c2cc(S(=O)(=O)NCc3ccco3)ccc2F)c1 | 1 | i | 0.73 | . | . | 0.0 | 101
CSc1ccccc1C(=O)NCC(c1ccco1)N1CCCCC1 (stereo unspecified) | -7 | i | 1.2 | -38 | 111 | . | 102
S=C(NCC(c1cccnc1)N1CCOCC1)NC1CCCCC1 (stereo unspecified) | 0 | i | 0.95 | 7 | 135 | . | 103
O=S(=O)(c1ccc2ccccc2c1)N1CCN(C2Cc3ccccc3C2)CC1 | -3 | i | 0.81 | . | . | -0.5 | 102
Cc1c(Cl)c([N+](=O)[O-])nn1Cc1ccc(C(=O)N/N=C\c2ccccn2)o1 | -7 | i | 1 | . | . | -0.2 | 118
Cc1ccc(Nc2ncnc3c2cnn3C)cc1 | -6 | i | 0.93 | . | . | . | 103
COc1cccc2sc(N(C)c3ccccc3)nc12 | -18 | i | 0.87 | . | . | -0.3 | 91
Cc1ccc2[nH]c(=O)c(CN(CCc3ccccc3)C(=O)N3CCOCC3)cc2c1 | 0 | i | 0.86 | 36 | 97 | -1.8 | 109
Clc1ccc(Cl)c(-c2nn3c(COc4ccccc4)nnc3s2)c1 | 2 | i | 1.1 | -188 | 67 | -0.8 | 25
Cc1ccccc1Cc1c(C)nc2c(C(=O)NCc3ccco3)cnn2c1C | -8 | i | 0.9 | . | . | -0.5 | 81
CCOC(=O)CNC(=O)C1c2ccccc2C(=O)N(c2ccc(OC)cc2)C1c1ccc(OC)cc1 (stereo unspecified) | -2 | i | 0.79 | 3 | 51 | -0.2 | 103
Cc1cc2c3c(c1)C1(SCC(=O)N1c1ccc(F)cc1)C(=O)N3C(C)(C)CC2C (stereo unspecified) | 1 | i | 0.98 | 18 | 94 | -0.3 | 102
COc1ccc(OC)c(-n2cnc3cc(C(=O)O)ccc32)c1 | -7 | i | 1 | . | . | -0.1 | 105
O=C(N1CCOCC1)n1cnc2ccccc21 | -2 | i | 0.92 | -182 | 93 | -0.3 | 102
Clc1cccc(Oc2cnns2)c1Cl | -2 | i | 0.86 | -27 | 103 | 0.4 | 103

A different layout for 6 compounds above:
Values run as follows: PKD1 inh	HSV augment	HSV augment primary fold	INS promoter inh	INS promoter inh cell count	GALR2 agonist	RGS16-Gao HTS
CC(/C=N/NC(=O)c1nn(C)c(C)c1Br)=C\c1ccccc1
  1	i	0.91	-25	117	-0.5	102
CCNC(=S)NN(c1ccccc1)c1ccccc1
  0	i	1.1	.	.	1.0	101
Cn1c(=O)c2c(nc(NCCCN3CCOCC3)n2Cc2ccc(Cl)cc2)n(C)c1=O
  -5	i	0.73	15	138	-0.6	.
Cc1nn(CCCC(=O)NCc2ccccc2)c(C)c1[N+](=O)[O-]
  -5	i	0.9	24	132	-0.2	110
O=C(CSc1nncn1-c1ccccc1)NC1CCCc2ccccc21 (stereo unspecified)
  0	i	1	-29	66	-0.2	23*
COc1ccc(Cc2nc(-c3ccc(Br)cc3)no2)cc1
  4	i	0.82	28	98	-0.9	104

Screening results (PubChem)
